# YopH inh – YopH tyrosine phosphatase inhibitors, primary screen, biochemical, fluorescence Ex485/Em525. YopH tyrosine phosphatase [Yersinia enterocolitica]. inhibition, %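 (about 10 µM by stock and volumes)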. actives 0.16% (n = 140,000). AID 898, 2007;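 active = inhibition of 50% or more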;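 also: controls were vehicle for no effect and minimum signal wells for full effect; inactives centre near -20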
# Arbovirus anti – antivirals against arbovirus infection, primary screen, cell-based, full library, 10K replicate subset; actives 0.37% (n = 200,000); arbovirus infection cell-based antiviral screen; inhibition, % at 10 µM; AID 1251, 2008;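 active = inhibition from about 30%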;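 also: bluetongue infection of BSR cells; cell survival read as ATP light after 72 h; 0% = infected wells without compound and 100% = uninfected wells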
# RecA intein inh – Mtb RecA intein splicing inhibitors, primary screen, biochemical, fluorescence, HTS. Protein RecA (Mycobacterium tuberculosis (strain ATCC 25618 / H37Rv)), P9WHJ3. cell-free RecA intein splicing. inhibition, %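 (about 9 µM by stock and volumes)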. actives 0.75% (n = 290,000). AID 2221, 2009; in the data active = inhibition above about 30%;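 also: 0% = vehicle wells and 100% = reference inhibitor control wells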
# Target sequence (P9WHJ3 whole entry, looked up): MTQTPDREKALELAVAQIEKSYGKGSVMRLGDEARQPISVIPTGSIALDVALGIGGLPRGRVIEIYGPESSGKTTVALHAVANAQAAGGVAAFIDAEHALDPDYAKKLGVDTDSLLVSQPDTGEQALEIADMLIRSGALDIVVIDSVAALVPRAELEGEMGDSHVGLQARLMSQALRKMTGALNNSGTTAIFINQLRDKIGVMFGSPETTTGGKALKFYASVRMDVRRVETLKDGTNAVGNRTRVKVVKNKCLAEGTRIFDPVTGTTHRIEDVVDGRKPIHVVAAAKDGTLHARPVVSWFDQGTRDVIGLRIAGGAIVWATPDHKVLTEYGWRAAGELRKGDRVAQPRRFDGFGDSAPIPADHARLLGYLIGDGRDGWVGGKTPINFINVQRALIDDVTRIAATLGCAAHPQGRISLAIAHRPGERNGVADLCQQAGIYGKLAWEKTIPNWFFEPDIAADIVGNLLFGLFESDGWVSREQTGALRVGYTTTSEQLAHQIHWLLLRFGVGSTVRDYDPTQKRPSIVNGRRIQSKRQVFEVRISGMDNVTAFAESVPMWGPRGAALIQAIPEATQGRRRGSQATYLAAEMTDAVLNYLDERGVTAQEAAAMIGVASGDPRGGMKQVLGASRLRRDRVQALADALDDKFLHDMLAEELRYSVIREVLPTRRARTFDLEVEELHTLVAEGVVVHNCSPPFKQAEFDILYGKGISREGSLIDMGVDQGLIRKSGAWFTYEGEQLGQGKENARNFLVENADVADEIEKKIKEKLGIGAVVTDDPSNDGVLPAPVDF
# Mtb H37Rv – M. tuberculosis H37Rv growth inhibitors, H37Rv strain (AID 1626); M. tuberculosis H37Rv growth inhibition; higher % means a stronger effect; inhibition, % at 10 µM, or IC50 in µM where a hit was titrated; actives 0.95% (n = 220,000);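 active = confirmed in a dose series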;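 also: bacteria incubated seven days before Alamar blue readout; 0% = bacteria only wells and 100% = bacteria with antibiotic wells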
# Mtb betalactam – beta-lactam sensitization of Mtb H37Rv, H37Rv; M. tuberculosis H37Rv growth with meropenem, percent inhibition; hits of this screen are not shown here; inhibition, % at 25 µM; actives 0.27% (n = 330,000);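 active = about 74% or more and at least 40 points above the plate without the antibiotic, then above 30% in a dose series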;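 also: growth measured after seven days incubation then overnight dye step; 0% = bacteria only wells and 100% = bacteria with antibiotic; twin plates without the antibiotic show which effects depend on it; some results filed as inactive read as strong as hits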
# Arbovirus anti repeat – second read-out of Arbovirus anti, no call of its own (marks repeat the call); inhibition, %; measured here: 10K subset replicate screen; many hits read low in the repeat;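 first of two repeat runs on a subset; 0% = infected and 100% = uninfected wells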
# * = called active by the depositor; . = not tested or not shown. This is a subset; rates above refer to the full screens.
SMILES,YopH inh,Arbovirus anti,RecA intein inh,Mtb H37Rv,Mtb betalactam,others
CCNC(=O)/C(C#N)=C/c1c(N2CCOCC2)nc2ccccn2c1=O,-21,-6,-73,-5%,5,
CCS(=O)(=O)C1=NN2C(=N)/C(=C\c3ccc(OC(=O)c4ccco4)c(Br)c3)C(=O)N=C2S1,.,.,11,.,4,
CNc1oc(Cc2cccc3ccccc23)nc1C#N,3,-4,2.2,7%,21,
CCOc1ccc(C(=O)CC(=O)C(=O)NCCc2ccc(OC)c(OC)c2)cc1,-26,-1,4.3,-2%,1,
O=C(COc1ccccc1[N+](=O)[O-])N1CCN(c2ccccn2)CC1,.,.,0.6,.,-3,
CN1CCN(c2nc(-c3ccccc3)nc3c2oc2ccccc23)CC1,.,.,-1.4,5.5µM*,100,
Cc1nc(C)c(NC(=O)N2CCc3ccccc32)cc1NC(=O)N1CCc2ccccc21,-33,-2,-2.7,3%,3,
CC(C)[C@H](NC(=O)N1CC(=O)Nc2ccccc21)C(=O)N[C@H](Cc1c[nH]c2ccccc12)C(=O)O,.,.,-1.9,.,-6,
COc1ccc(/C=C2\C(=O)ON=C2c2ccccc2)cc1,.,.,-0.4,.,-1,
CSc1ccccc1C(=O)N1CCCC(CCC(=O)NCc2ccc(F)c(F)c2)C1 (stereo unspecified),.,.,-0.6,.,-8,
C=C(C)C(=O)N1CC2(CC(c3cccc(NC(=O)/C=C\C=C/C)c3)=NO2)C[C@H]1C(N)=O (stereo partly specified),.,.,-6.7,0%,-7,
CC1=C(C)CC(C(=O)NCc2cccc(Cl)c2)C(C(=O)O)C1 (stereo unspecified),.,.,-2.1,.,1,

# Structures listed so far that contain a COOH group, in the order listed:
SMILES,YopH inh,Arbovirus anti,RecA intein inh,Mtb H37Rv,Mtb betalactam,others
CC(C)[C@H](NC(=O)N1CC(=O)Nc2ccccc21)C(=O)N[C@H](Cc1c[nH]c2ccccc12)C(=O)O,.,.,-1.9,.,-6,
CC1=C(C)CC(C(=O)NCc2cccc(Cl)c2)C(C(=O)O)C1 (stereo unspecified),.,.,-2.1,.,1,

# (continued)
SMILES,YopH inh,Arbovirus anti,RecA intein inh,Mtb H37Rv,Mtb betalactam,others
Cc1nc(N2CCOCC2)nc(OCCN2CCOCC2)c1[N+](=O)[O-],-15,-4,-0.1,-6%,-3,
O=C(NC1CCCC1)c1cc(=O)[nH]c2ccccc12,.,.,-0.9,.,-2,
Cc1ccc(CC(=O)Nc2ccc(F)c([N+](=O)[O-])c2)cc1C,.,1,3.3,-1%,3,
Cc1ccc(NC(=O)C2Oc3ccccc3OC2C)cc1 (stereo unspecified),.,.,2.2,.,4,
CC(C)c1ccc(N(C(=O)c2ccc3c(c2)OCO3)C2C=CS(=O)(=O)C2)cc1 (stereo unspecified),.,.,-3.3,.,22,
CSCCC(NC(=O)OCc1ccccc1)C(=O)O (stereo unspecified),-13,1,-0.1,4%,-8,
CCN(CC)c1ccc(C(=O)NNC(=O)c2cccn2C)cc1,.,.,0.1,.,-8,
O=C(OCCOc1cccc(Cl)c1)c1cc(S(=O)(=O)N2CCCCC2)ccc1N1CCOCC1,.,.,-3.1,.,-2,
O=C1COc2ccc(S(=O)(=O)N3CCCCCC3)cc2N1,.,.,0.6,.,-1,
COC(OC)c1nc(SCC(=O)Nc2cccc(Cl)c2)ncc1C(=O)O,.,.,5.5,4%,13,
CCCCN(C)Cc1c(C)[nH]c2c(Cl)cccc2c1=O,0,6,-4.2,-8%,1,
O=C(Cc1ccc(Cl)cc1)N1CCN(C(=O)c2ccco2)CC1,-27,6,0.7,6%,-8,
O=C(Nc1nc(-c2ccc(S(=O)(=O)N3CCOCC3)cc2)cs1)c1ccccc1,-3,-1,-2.9,.,12,
COC(=O)C1C(O)=C(C(C)=N)C(=O)CC1(C)C (stereo unspecified),-22,7,1.5,-3%,-4,Arbovirus anti repeat=3
O=C(COC(=O)/C=C/c1ccccc1)Nc1cccnc1Cl,.,.,0.4,.,19,
CCOC(=O)N1CCN(C(=O)c2ccc(N(C)S(=O)(=O)c3ccc(C)cc3)cc2)CC1,.,.,4.5,.,-12,
CC(=O)Nc1ccc(NC(=O)CSc2nnc(NC(=O)C3CC(=O)N(c4ccc(F)cc4)C3)s2)cc1 (stereo unspecified),.,.,-3.3,.,-8,
O=C(Nc1nc(-c2ccccn2)cs1)c1ccc(S(=O)(=O)N2CCCCC2)cc1,.,.,-0.7,.,38,
O=C(NCCN1CCOCC1)c1csc2c1CCCCC2,-32,6,.,-7%,8,
Cn1c(N)c(C(=O)COC(=O)C2CCCC2)c(=O)n(C)c1=O,.,3,-0.3,-3%,-7,
COc1ccc(CCNC(=O)CCS(=O)(=O)c2ccc3c(c2)CCN3C(C)=O)cc1OC,-17,-6,1.6,.,-6,
O=C(COC(=O)CCc1nc2ccccc2n1-c1ccccc1)Nc1cccc(Cl)c1,-13,8,2.3,5%,-2,
Cc1cccc(N(C(=O)c2csnn2)C(C(=O)NC(C)(C)C)c2ccncc2)c1 (stereo unspecified),-33,0,-1.0,6%,0,
COc1ccc(CCC(=O)Nc2nc3c(s2)CN(C)CC3)cc1OC,-23,-1,-5.9,-11%,-4,
C(=C/c1nccc2c1[nH]c1ccccc12)/c1ccc2c(c1)OCO2,.,-15,-3.0,13%,.,
O=S(=O)(c1ccccc1)N1CCc2ccccc21,.,.,-0.1,.,24,
COc1cc(/C=C(\C#N)C(=O)NC2CCCCC2C)ccc1OS(=O)(=O)c1ccc(C)cc1 (stereo unspecified),-31,-37,56*,>100µM*,11,
CCOC(=O)C1CCN(C(=O)COc2cccc3ccccc23)CC1,.,.,2.8,.,1,
COc1cc(CC(=O)NCc2ccc3c(c2)OCO3)cc(OC)c1OC,-39,-5,-1.4,-3%,-5,
CCNS(=O)(=O)c1ccc(-c2ccc(-n3cnnn3)cc2)cc1,.,-1,2.0,1%,-6,
O=c1[nH]c2ccc(Cl)cc2c(O)c1Cc1ccccc1,.,9,-5.0,7%,10,
O=S(=O)(NCC(c1ccc2c(c1)OCO2)N1CCOCC1)c1ccccc1 (stereo unspecified),.,.,-0.2,.,1,
CCOC(=O)c1nnn(-c2nonc2N)c1COc1ccccc1,-21,0,0.0,1%,-7,Arbovirus anti repeat=-1
CC(C)CCN1C(Nc2ccccc2)=NC[C@@H]1Cc1ccccc1,.,.,1.8,.,-3,
CN1C(=O)CC(Sc2ncccc2C(=O)O)C1=O (stereo unspecified),-17,-8,8.0,14%,-4,
COc1ccccc1C(=O)NNC(=O)c1ccc(Cl)cc1,.,-1,1.0,0%,-1,

# The closing 2 records of the part above are carried over, then new ones follow.
SMILES,YopH inh,Arbovirus anti,RecA intein inh,Mtb H37Rv,Mtb betalactam,others
CN1C(=O)CC(Sc2ncccc2C(=O)O)C1=O (stereo unspecified),-17,-8,8.0,14%,-4,
COc1ccccc1C(=O)NNC(=O)c1ccc(Cl)cc1,.,-1,1.0,0%,-1,
CCC(Oc1ccccc1F)C(=O)NCCN1CCOCC1 (stereo unspecified),.,.,0.3,.,3,
CCc1cc(C=NC2CCCCC2)c(O)s1,-26,-3,1.4,.,-6,
CC(C)CCN1CCN(Cc2ccoc2)CC1CCO (stereo unspecified),.,.,-1.6,-3%,-13,
Cc1ccc(N2C(=O)CSC2c2cccnc2)cc1F (stereo unspecified),-47,-3,7.0,-7%,-9,
CCOc1cc(-c2nc(-c3ccc(OC)cc3)no2)cc(OCC)c1OCC,-37,-3,-0.3,13%,55,Arbovirus anti repeat=0
O=C(C1CCC(CNc2c(N3CCOCC3)c(=O)c2=O)CC1)N1CCN(c2ccccc2)CC1 (stereo unspecified),-21,0,.,-8%,2,Arbovirus anti repeat=1
Cc1ccc(OCCNC(=O)/C=C/c2ccccc2)cc1,-21,5,-0.4,2%,2,
O=C(O)c1sccc1Oc1ccc(NS(=O)(=O)c2ccc(Cl)cc2)cc1,.,.,0.9,.,-2,
Cc1ccccc1N=C1NC(=O)C(CO)(CO)S1,.,.,-1.1,.,-1,
CN1CCN(C(=S)NC(CC(=O)c2ccccc2)c2ccccc2)CC1 (stereo unspecified),.,.,-1.7,-5%,-6,
CCOC(=O)Cc1csc(SCn2nnc3ccccc3c2=O)n1,-22,4,0.4,3%,-3,Arbovirus anti repeat=2
Cc1cc(C)n(C(=O)c2cc([N+](=O)[O-])cc([N+](=O)[O-])c2)n1,.,.,6.0,.,4,

# 3 compounds from above, ordered by formula weight, descending:
SMILES,YopH inh,Arbovirus anti,RecA intein inh,Mtb H37Rv,Mtb betalactam,others
CN1CCN(C(=S)NC(CC(=O)c2ccccc2)c2ccccc2)CC1 (stereo unspecified),.,.,-1.7,-5%,-6,
CCC(Oc1ccccc1F)C(=O)NCCN1CCOCC1 (stereo unspecified),.,.,0.3,.,3,
Cc1ccc(N2C(=O)CSC2c2cccnc2)cc1F (stereo unspecified),-47,-3,7.0,-7%,-9,

# (continued)
SMILES,YopH inh,Arbovirus anti,RecA intein inh,Mtb H37Rv,Mtb betalactam,others
COc1ccccc1OCCn1c(=O)sc2ccccc21,-12,8,.,5%,-5,
C=CCN(c1ccc(Cl)cc1)S(=O)(=O)c1cccc(C(=O)O)c1,.,12,1.5,-3%,0,
Cc1[nH]c(C)c(S(=O)(=O)NCCc2ccccc2)c1C(=O)N1CCCC1,.,.,-3.7,.,-6,
CCN(C(=O)CN1CCN(c2cccc(Cl)c2)CC1)c1c(N)n(Cc2ccccc2)c(=O)[nH]c1=O,.,17,1.4,0%,-5,
O=C(c1cccnc1)N1CCN(C(=O)c2ccco2)CC1,-29,-5,0.8,-7%,4,
COc1ccc(Nc2nc(-c3ccccc3)nc3ccccc23)cc1S(=O)(=O)N1CCOCC1,.,.,-0.4,3%,-4,
COc1ccc(N2C(=O)CCC(C(=O)O)C2c2ccc(F)cc2)cc1 (stereo unspecified),-17,6,3.3,-4%,1,
CN(C)/N=C/c1c(O)ccc2ccccc12,-2,0,-4.5,-6%,69,
CC(=O)N1CCc2cc(S(=O)(=O)NC(CC(C)C)C(=O)N3CCc4ccccc4C3)ccc21 (stereo unspecified),-33,5,2.4,-6%,-12,
O=C(COc1ccc(Cl)cc1Cl)Nc1ccccc1F,.,.,0.5,.,20,
COc1ccccc1OCCn1c(SCC(=O)O)nc2ccccc21,.,.,-3.4,.,3,
CC(=O)c1ccc(NC(=O)C(C)Sc2n[nH]c(-c3cccnc3)n2)cc1 (stereo unspecified),.,.,-3.1,.,-2,

# The last seven compounds of the section above are carried over, then new ones follow.
SMILES,YopH inh,Arbovirus anti,RecA intein inh,Mtb H37Rv,Mtb betalactam,others
COc1ccc(Nc2nc(-c3ccccc3)nc3ccccc23)cc1S(=O)(=O)N1CCOCC1,.,.,-0.4,3%,-4,
COc1ccc(N2C(=O)CCC(C(=O)O)C2c2ccc(F)cc2)cc1 (stereo unspecified),-17,6,3.3,-4%,1,
CN(C)/N=C/c1c(O)ccc2ccccc12,-2,0,-4.5,-6%,69,
CC(=O)N1CCc2cc(S(=O)(=O)NC(CC(C)C)C(=O)N3CCc4ccccc4C3)ccc21 (stereo unspecified),-33,5,2.4,-6%,-12,
O=C(COc1ccc(Cl)cc1Cl)Nc1ccccc1F,.,.,0.5,.,20,
COc1ccccc1OCCn1c(SCC(=O)O)nc2ccccc21,.,.,-3.4,.,3,
CC(=O)c1ccc(NC(=O)C(C)Sc2n[nH]c(-c3cccnc3)n2)cc1 (stereo unspecified),.,.,-3.1,.,-2,
Cc1ccc(C2C(C(=O)c3ccco3)=C(O)C(=O)N2c2nnc(C)s2)cc1 (stereo unspecified),15,1,.,-5%,-6,
C/C(CC(=O)Nc1cccc(F)c1)=N\NC(=O)c1ccncc1,.,.,-1.5,.,99,
CC(C)(C)C(=O)COc1ccccc1[N+](=O)[O-],.,-6,-2.6,0%,4,
O=c1[nH]c2ccccc2nc1/C=C(\O)c1cccs1,.,-10,-7.0,4%,13,
Cc1csc(NC(=O)CSc2nsc(SCC(=O)Nc3nc(C)cs3)c2C#N)n1,-33,-15,3.9,-6%,16,
COc1cccc(CC(=O)NCCCSc2ccccc2)c1,.,.,1.2,.,-8,
CCN1CC2([N+](=O)[O-])CC=C(Cl)C([N+](=O)[O-])(C1)C2 (stereo unspecified),.,-2,-1.4,6%,-4,
COc1ccc(N2C(=O)/C(=C/c3ccc(N(C)C)o3)C(=O)NC2=S)cc1,.,.,-2.7,.,4,
Cc1nc2ccc(NC(=O)c3ccc(=O)[nH]c3)cc2s1,.,.,-0.8,.,-2,
Cc1ccc(SCC(=O)Nc2ccc(-c3nnc(-c4ccco4)o3)cc2)cc1,-43,2,-2.7,2%,-11,
COc1cc(NC(=O)CCCOc2ccc(Cl)cc2Cl)c(C(=O)O)cc1OC,.,.,-0.4,-8%,-2,
CNCC(O)c1ccc(O)cc1 (stereo unspecified),-58,4,-3.5,1%,4,

# High-throughput results from PubChem.
